# CtBP-E1A blk – qHTS Assay for Inhibitors of the CtBP/E1A Interaction; CtBP / adenovirus E1A interaction (AlphaScreen); 340,000 tested, 0.49% active; AlphaScreen GST-E1A/His-CtBP binding, 1536-well; active compounds read low; control for the full effect not named in the record; activity change, % (no concentration beside the values); in the data active means activity change below about -65%; inconclusive means about -30% to -65%; inactive means above about -30%; further: on the % scale 0 is the no-effect control and ±100 the full control effect
#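 GST-E1A and His-tagged CtBP (125 nM each as 5X stock) were preincubated with pin-transferred compound for 2 h at 37 °C in the dark, then glutathione donor and nickel acceptor beads were added for 1 h before AlphaScreen reading.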
# D2 potentiator – Beta-Arrestin HTS for Positive Allosteric Modulators of the Human D2 Dopamine Receptor: Potentiators; DiscoveRx D2 beta-arrestin cells, luminescence, 90 min; 100% = 57 uM dopamine signal; AID 624464, 2012; 360,000 tested, 0.23% active; potentiation, % (concentration not given with the values); D(2) dopamine receptor (Homo sapiens), P14416; active = potentiation of 50% or more; inconclusive = 30% to 50%; inactive = 30% or less;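 further: compound concentration not given in the record; tested on top of an EC20 dose of dopamine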
# Target sequence (P14416 whole entry, looked up): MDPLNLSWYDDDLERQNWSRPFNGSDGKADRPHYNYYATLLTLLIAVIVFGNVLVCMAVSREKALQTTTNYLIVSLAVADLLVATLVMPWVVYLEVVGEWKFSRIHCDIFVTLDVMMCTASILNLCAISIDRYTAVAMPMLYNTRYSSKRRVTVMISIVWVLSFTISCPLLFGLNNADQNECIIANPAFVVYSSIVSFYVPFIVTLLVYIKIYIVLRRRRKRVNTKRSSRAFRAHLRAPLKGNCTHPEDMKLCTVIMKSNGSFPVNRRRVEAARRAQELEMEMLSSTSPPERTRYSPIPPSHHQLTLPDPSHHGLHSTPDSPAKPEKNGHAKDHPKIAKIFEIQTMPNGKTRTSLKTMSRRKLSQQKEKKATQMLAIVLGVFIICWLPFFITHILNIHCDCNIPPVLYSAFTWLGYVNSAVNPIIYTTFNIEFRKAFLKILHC
#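 D2 cells co-treated with compound plus 50 nM dopamine (EC20) for 90 min at 37 deg C to detect potentiation. Beta-arrestin recruitment was read as enzyme-fragment luminescence after 1 h at ambient temperature. Full response was set by 57 uM dopamine.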
# TRPML1 blocker – qHTS for Inhibitors of the Human Mucolipin Transient Receptor Potential 1 (TRPML1); AID 624415, 2012; 390,000 tested, 0.02% active; activity change, negative = inhibition, % (concentration not given with the values); Mucolipin-1 (Homo sapiens), Q9GZU1; TRPML1-inducible cells, Ca2+ dye fluorescence, FDSS; active compounds read low; inhibition of EC80 agonist-evoked calcium signal; in the data active means activity change below about -50%; inconclusive means about -30% to -50%; inactive means above about -30%;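 further: stimulus is agonist 54-4 at its EC80 concentration; on the % scale 0 is the no-effect control and ±100 the full control effect; the text of the record puts the active cut at -80%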
# Target sequence (Q9GZU1 whole entry, looked up): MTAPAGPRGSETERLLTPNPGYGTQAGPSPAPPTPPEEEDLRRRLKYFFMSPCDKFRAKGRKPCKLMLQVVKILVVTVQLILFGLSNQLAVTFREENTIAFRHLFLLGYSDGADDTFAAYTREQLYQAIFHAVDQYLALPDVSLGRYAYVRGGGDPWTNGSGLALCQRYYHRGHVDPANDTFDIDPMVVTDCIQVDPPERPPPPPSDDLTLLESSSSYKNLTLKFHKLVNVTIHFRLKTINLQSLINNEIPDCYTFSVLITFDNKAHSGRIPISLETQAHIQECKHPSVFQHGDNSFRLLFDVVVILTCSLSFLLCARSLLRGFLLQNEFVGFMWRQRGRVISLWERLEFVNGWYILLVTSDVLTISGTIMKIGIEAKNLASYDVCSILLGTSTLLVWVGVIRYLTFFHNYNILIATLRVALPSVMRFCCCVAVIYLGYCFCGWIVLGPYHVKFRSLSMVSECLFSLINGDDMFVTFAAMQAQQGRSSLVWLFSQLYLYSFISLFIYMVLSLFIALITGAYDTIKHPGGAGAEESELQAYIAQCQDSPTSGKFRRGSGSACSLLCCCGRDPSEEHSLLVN
#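 Calcium fluorescence in TRPML1-DL cells induced overnight with Tet: a 110 s read after compound pin addition, then a 110 s antagonist read after challenge with 54-4 at 4 uM final (EC80).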
# Six1-Eya2 blk – qHTS Assay for Inhibitors of the Six1/Eya2 Interaction; Homeobox protein SIX1 (Homo sapiens) + Protein phosphatase EYA2 (Homo sapiens), …; activity change, % (no concentration beside the values); AlphaScreen GST-Six1/His-Eya2 binding, biochemical; active compounds read low; control for the full effect not named in the record; 360,000 tested, 0.56% active; in the data active = activity change below about -65%; inconclusive = about -30% to -65%; inactive = above about -30%; further: on the % scale 0 is the no-effect control and ±100 the full control effect
#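 Homogeneous AlphaScreen proximity assay pairing GST-Six1 with His-tagged Eya2 (added as 5X mix: 250 nM and 500 nM) in 50 mM Tris pH 8.0, 300 mM NaCl, 1 mM TCEP. Glutathione donor and nickel acceptor beads; 1 h, 37 °C, dark.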
# TRPV1 potentiator – HTS Assay for Compounds that Act as Potentiators of the Vanilloid Receptor 1. Transient receptor potential cation channel subfamily V member 1 (Homo sapiens), Q8NER1. TRPV1-expressing cells, Fluo-8 calcium influx, capsaicin EC20 potentiation; host cell line not named in the record; control for the full effect not named in the record. potentiation, % at 8.33 µM. 320,000 tested, 0.02% active; active means potentiation above 80%; inconclusive means 30% to 80%; inactive means below 30%; further: 0% is about no effect
#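 TRPV1-expressing cells were cultured overnight at 35.5C and loaded with Fluo-8 calcium dye for 40 to 90 min at room temperature. After a 10 s baseline, compound was added and calcium influx was read kinetically for 3 min (ex 480/em 520 nm).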
# TRPML1 agonist – qHTS for Agonists of the Human Mucolipin Transient Receptor Potential 1 (TRPML1). Mucolipin-1 (Homo sapiens), Q9GZU1. TRPML1-expressing cells, Ca2+ dye fluorescence, FDSS; host cell line not named in the record; reference of the full effect not given here. activation, % (concentration not given with the values). 410,000 tested, 0.12% active. AID 624414, 2012; in the data active = activation above about 50%; inconclusive = about 30% to 50%; inactive = below about 30%; further: 0% is about no effect; the text of the record puts the active cut at 80%
#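 Tetracycline-induced TRPML1-DL cells are seeded and incubated overnight before loading with a no-wash Ca2+ dye and quencher. Agonist activity is taken from the 110 s fluorescence read following compound pin-transfer on an FDSS, before EC80 54-4 challenge.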
# * marks the source's active call; other numbers are inactive results; ? = inconclusive; / = not tested or not shown; & = joins results of further samples.
SMILES,CtBP-E1A blk,D2 potentiator,TRPML1 blocker,Six1-Eya2 blk,TRPV1 potentiator,TRPML1 agonist
COc1ccccc1OCC(=O)Nc1c2c(nn1-c1ccc(F)cc1)CS(=O)(=O)C2,5,-6,8,2,-6,-0.1
CC(CCc1ccccc1)NC(=O)Cn1cccc1C(=O)c1ccccc1 (stereo not given),1,-6,8,-5,-4,-1.2
Cc1ccc(CN2CCN(CC(=O)O)C2=O)cc1,0,1,-29,6,-5,-0.1
COc1ccccc1NC(=O)c1cc(C(=O)Nc2ccccc2OC)cc([N+](=O)[O-])c1,-8,-9,-18,3,-26,0.9
COc1ccc(Cl)cc1CSc1ncn[nH]1,3,-10,-18,-1,-50,0.0
CN(C(=O)COc1cccc(Br)c1)C1CCS(=O)(=O)C1 (stereo not given),5,-8,7,1,?,-0.4
CS(=O)(=O)Nc1cccc(C2=NN(C(=O)c3cccc([N+](=O)[O-])c3)C(c3cccs3)C2)c1 (stereo not given),/,4,-13,-12,-11,0.0
COc1cccc(/C=N/Nc2ccc(Cl)nn2)c1,/,-6,12,-2,-13,4.4
CCOC(=O)[C@]12CCCC=C1N(Cc1ccco1)C(=O)[C@H](CC(=O)NCCCOC)C2,-7,/,/,11,/,-0.5
CCOC(=O)c1cnc(SCC(=O)c2ccc(Cl)cc2)nc1N,-1,-10,52,-10,1,2.9
CCc1cc2c(=O)c(-c3nc4ccccc4n3C)c(C)oc2c(CN2CCOCC2)c1O,9,-19,1,-3,-7,-0.2
Cn1c(N2CCOCC2)cc(=O)n(C)c1=O,5,-4,25,6,5,0.7
Cc1cc(C)c(C)c(S(=O)(=O)ON2C(=O)c3ccccc3C2=O)c1C,-1,-26,2,-30,7,0.3
O=S(=O)(NCc1ccco1)c1ccccc1Br,-3,-5,43&26,2,-7,1.0&-1.0
Cc1ccc(CNC(=O)c2cccc3c2C(=O)c2ccc(N4CCC(C)CC4)cc2S3(=O)=O)cc1,1,-2,-4,6,-6,67*
CCOc1ccccc1N1CCN(c2ncnc3scc(-c4ccc(OC)cc4)c23)CC1,-15,-10,24,-25,-20,3.1
CC(C)Oc1ccc(Cc2cnc(=S)[nH]c2N)cc1,/,?,5,-6,-2,2.1
O=C(Nc1ncccn1)C1CCCN1S(=O)(=O)c1ccc(Cl)c(Cl)c1 (stereo not given),1,-22,7,4,8,-0.1
Cc1sc(NC(=O)Cn2[nH]c(=O)c3ccccc3c2=O)nc1-c1ccccc1,-5,-7,17,-7,0,3.0
Cc1ccccc1-n1nc2c(c1NC(=O)c1cccs1)CS(=O)(=O)C2,-18,-9,-12,-5,-5,0.0
Cc1[nH]c2ccccc2c1CN1CCC(CO)(Cc2ccccc2)CC1,-12,-6,-5,-6,10,0.5
Cc1c(NC(=O)c2ccc(N(C)S(=O)(=O)c3ccccc3)cc2)c(=O)n(-c2ccccc2)n1C,16,-5,-3,3,9,2.2
CN(C(=O)C1CCCO1)C1CCS(=O)(=O)C1 (stereo not given),8,-6,-5,-2,-8,-0.3
O=C(Nc1ccc(Cl)cc1)Nc1ccc(N2CCC(C(F)(F)F)CC2)nc1,5,-8,13,0,-5,-0.1
FC(F)(F)c1cccc(NC(=S)N(CCCN2CCCC2)Cc2cccn2Cc2ccc(Cl)cc2)c1,-10,-13,32,-13,2,0.7
c1ccc(NCc2nc(-c3ccccc3)no2)cc1,5,-14,13,3,-32,2.6
COc1ccc(CSCC(=O)N/N=C/c2ccccc2O)cc1,-15,-11,2,-18,-11,0.4
C=CCNC(=O)C1CC(=O)N(c2ccc(C)cc2)C1 (stereo not given),7,-1,3,0,9,3.5
C=CCNC(=O)C1CC(=O)N(c2ccc(OCC(=O)Nc3ccccc3)cc2)C1 (stereo not given),8,8,-16,6,-2,0.6
COc1ccc(C(C)=O)cc1CC1(C)C(=O)Nc2ccc(OC(F)(F)F)cc21 (stereo not given),-9,-13,/,-17,/,-1.0
COc1cc(/C=C2\CC/C(=C\c3ccc(OCCO)c(OC)c3)C2=O)ccc1OCCO,-11,9,-28,8,6,107*
CCC(=O)Nc1ccc2oc(-c3cccnc3)nc2c1,-1,0,26,4,17,-0.3
Cn1c(NNC(=O)CCC2CCCCC2)cc(=O)n(C)c1=O,-7,-9,26,?,9,-0.1
CCCCOC(=O)c1ccc(NC(=O)c2c(OC)cccc2OC)cc1,-1,-4,20,-2,1,4.0
COc1ccc(C(C(=O)NC2CCCCC2)N(CC2CCCO2)C(=O)C2COc3ccccc3O2)cc1OC (stereo not given),0,-6,8,6,4,-1.2
COc1cc(/C=C(\NC(C)=O)C(=O)N2CCCCC2)ccc1OC(C)=O,0,1,3,5,13,-0.1

# Ordered by value in D2 potentiator (high to low): 5 of the compounds above
molecule	D2 potentiator
COc1ccccc1OCC(=O)Nc1c2c(nn1-c1ccc(F)cc1)CS(=O)(=O)C2	-6
COc1ccc(CSCC(=O)N/N=C/c2ccccc2O)cc1	-11
FC(F)(F)c1cccc(NC(=S)N(CCCN2CCCC2)Cc2cccn2Cc2ccc(Cl)cc2)c1	-13
c1ccc(NCc2nc(-c3ccccc3)no2)cc1	-14
O=C(Nc1ncccn1)C1CCCN1S(=O)(=O)c1ccc(Cl)c(Cl)c1 (stereo not given)	-22

# The list goes on.
SMILES,CtBP-E1A blk,D2 potentiator,TRPML1 blocker,Six1-Eya2 blk,TRPV1 potentiator,TRPML1 agonist
CCOCCCNC(=O)C1CCCN1S(=O)(=O)c1ccc(Cl)cc1 (stereo not given),5,-10,37,1,?,0.0
O=S(=O)(Nc1c(O)ccc2ccccc12)c1ccc(F)cc1,-7,25,-11,-6,/,1.4
CCc1ccc(NC(=O)C(NS(=O)(=O)c2ccc3c(c2)CCN3C(C)=O)C(C)C)cc1 (stereo not given),/,-8,-23,0,?,-0.1
O=C1c2ccccc2C(=O)N1CC(=O)N1c2ccccc2Sc2ccccc21,5,-11,-8,1,4,0.6
O=C1[C@H](Cc2ccccc2)NCC=CC[C@H](c2ccco2)N1Cc1ccccc1,-11,-63,79,-8,/,0.6
Clc1ccccc1N1CCN(Cc2ccco2)CC1,/,-65,-11,-1,8,-0.4
O=C(Nc1ccc(F)cc1)N1CCN(C(=O)C2CCCO2)CC1 (stereo not given),10,-11,?,4,-1,0.1
Cc1ccc(S(=O)(=O)c2c(N)n(C)c3nc4ccccc4nc23)cc1,?,15,6,?,-8,1.6
COc1ccc(NS(=O)(=O)c2ccc3nc(COc4cccc5ccccc45)[nH]c3c2)cc1,-3,?,29,-13,13,0.0
COc1ccc(NC(=O)C2CCCN(S(=O)(=O)c3cccs3)C2)cc1OC (stereo not given),9,-15,0,-5,3,0.5
O=C(CSc1nc(-c2ccc(F)cc2)nc2ccc(F)cc12)Nc1cccc(C(=O)O)c1,-12,-1,-9,1,10,-1.0
Cc1c(C(=O)N2CCN(S(=O)(=O)c3ccccc3)CC2)oc2ccc(Br)cc12,-4,-13,10,-3,/,1.5
COc1cccc(C(=O)NN2C(=S)N(c3ccccc3)C(=O)C2CC(N)=O)c1 (stereo not given),1,-4,-3,-19,-9,-0.2
O=C(O)c1oc2ccccc2c1CN1CCN(c2ccccc2)CC1,-8,-41,14,1,-16,-0.6
Cc1nc(-c2ccc(Cl)cc2)sc1C1(C)CC(c2ccccc2Br)=NO1 (stereo not given),/,-3,76,11,/,1.1
Cc1ccccc1NC(=S)N(CCN(C)C)C(C)c1ccco1 (stereo not given),15,-24,-4,7,3,1.6
CC(C)CNC(=O)COc1ccc(Sc2ccc(OCC(=O)NCC(C)C)cc2)cc1,-1,-8,-8,0,-10,1.1
CCC(C)NC(=O)CN1C(=O)NC2NC(=O)NC21 (stereo not given),11,-3,/,1,0,/
COC(=O)c1ccccc1NC(=O)COc1ccc2c(c1)OCO2,-3,-3,-1,-4,-12,1.4
CC[C@H](C)[C@H](NC(N)=O)C(=O)Nc1ccccc1F,9,-3,1,-7,6,0.0
O=C(Cc1ccc(Cl)cc1Cl)Nc1cccc(S(=O)(=O)Nc2ccccc2F)c1,1,-3,2,7,?,0.9
Cc1ccn(CCC(=O)O)n1,15,5,-4,23,6,-0.1
O=C(CCN1C(=O)/C(=C\c2cccs2)SC1=S)NC1=NCCS1,-3,-5,-11,-8,7,1.0
COCCNC(=S)NNc1ccccc1[N+](=O)[O-],-22,13,36,-6,-1,-0.6
Cc1ccc(N2CCN(c3ccc(C)cc3)C2c2cccnc2)cc1,?,6,-3,?,6,-0.3
CCOC(=O)c1c(C)n(C)c2ccc(OC)c(NS(=O)(=O)CC)c12,1,-13,9,0,15,-0.1
C[n+]1cccc(O)c1SCc1ccccc1,-12,-10,6,2,-19,0.0
COc1cc(C=O)ccc1Oc1nc(Nc2ccc(F)cc2F)nc(N2CCOCC2)n1,/,-3,-7,-3,-11,1.1
O=C(Cc1ccccc1)NCCCc1ccccc1,9,-8,12,7,19,-0.6
CN(C)CCCNc1cc(C(C)(C)C)nc2c(-c3ccccc3)cnn12,-18,-8,-8,0,2,0.2
COc1ccc(N2CCN(C(=O)CN3C(=O)COc4ccccc43)CC2)cc1,-20,-5,31,-3,-4,0.2
Nc1nc(-c2ccc(Cl)cc2)nn1C(=O)c1cccs1,0,3,1,2,6,-0.1
O=C(Nc1ccncc1)Nc1ccc(Cl)cc1,1,-11,7,-1,-10,0.2
COCc1cc(=O)n2[nH]c(-c3cccs3)cc2n1,-3,1,0,0,0,0.4
O=C(NCc1ccccn1)C1Nc2ccc(OC(F)(F)F)cc2C2C=CCC12 (stereo not given),1,-41,46,-17,/,-0.3
CNC(=O)NC(=O)CSc1ccc(S(=O)(=O)N2CCOCC2)cn1,8,1,5,0,-5,-0.3

# Sorted by count of non-hydrogen atoms (high to low): some entries from above
SMILES,CtBP-E1A blk,D2 potentiator,TRPML1 blocker,Six1-Eya2 blk,TRPV1 potentiator,TRPML1 agonist
CN(C)CCCNc1cc(C(C)(C)C)nc2c(-c3ccccc3)cnn12,-18,-8,-8,0,2,0.2
CNC(=O)NC(=O)CSc1ccc(S(=O)(=O)N2CCOCC2)cn1,8,1,5,0,-5,-0.3
O=C(Cc1ccccc1)NCCCc1ccccc1,9,-8,12,7,19,-0.6

# (cont.)
SMILES,CtBP-E1A blk,D2 potentiator,TRPML1 blocker,Six1-Eya2 blk,TRPV1 potentiator,TRPML1 agonist
COCCNC(=O)c1ccccc1NC(=O)Nc1ccccc1,-11,-12,61,11,-1,0.3
COC(=O)CC(=O)CSc1nc2c(cc1C#N)CCCCC2,9,-11,-10,2,2,0.5
CN(C)/C=C/C(=O)c1ccc(Cl)c([N+](=O)[O-])c1,5,-2,-6,-1,-3,0.2
O=C(COc1ccc(Br)cc1)N1CCc2ccccc2C1,12,-4,4,2,0,-1.0
COc1ccccc1C(C)NCC(=O)Nc1ccccc1C(F)(F)F (stereo not given),-1,-47,-10,10,0,0.4

# Compounds were not picked by outcome; about 0.95% have a hit in one of these screens.
